Compound activity (PubChem)
E coli growth: inhibitors of Escherichia coli growth. OD600 absorbance (test concentration not listed). 0.21% of 330,000 active. OD600, 23 h; hits give low values;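 active = OD600 absorbance below the run mean of sample wells minus 3.6 SD, in any replicate, cut at about 0.56 in these data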;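 note: stock transfer was 300 nL into about 60 µL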
HNF4A DNA FP: change in binding of human HNF4 alpha to DNA; AID 1224865; activity change, % at 10 µM; P41235; 0.3% of 360,000 active; HNF4a-FITC DNA binding, fluorescence polarization, 1 h; in the data active = activity change above about 30%, passing the limit was not always enough;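 note: controls were the assay level and a saturating level of protein; the project sought stronger binding though the title names inhibitors; some compounds called inactive have numbers as strong as hits; positive values seem to mean higher polarization but the record does not say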
Target sequence (P41235 whole entry, looked up): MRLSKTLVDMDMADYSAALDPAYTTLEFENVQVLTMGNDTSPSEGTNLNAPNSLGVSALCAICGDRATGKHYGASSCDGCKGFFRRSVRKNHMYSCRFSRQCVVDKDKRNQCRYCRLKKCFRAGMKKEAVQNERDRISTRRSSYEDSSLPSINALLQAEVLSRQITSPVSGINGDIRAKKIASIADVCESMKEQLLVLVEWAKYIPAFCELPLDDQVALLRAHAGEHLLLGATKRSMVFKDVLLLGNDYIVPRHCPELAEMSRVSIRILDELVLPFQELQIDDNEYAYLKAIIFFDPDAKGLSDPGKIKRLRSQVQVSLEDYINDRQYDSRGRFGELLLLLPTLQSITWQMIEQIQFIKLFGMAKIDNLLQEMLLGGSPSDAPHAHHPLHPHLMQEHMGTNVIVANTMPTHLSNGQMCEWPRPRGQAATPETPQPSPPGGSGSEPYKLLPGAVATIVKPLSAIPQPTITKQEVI
Beta2AR agonist: human beta-2 adrenergic receptor agonism by FAP. P07550. Am2.2-beta2AR cells, FAP receptor internalization, flow cytometry; reference of the scale not given here. response, % (no concentration beside the values). 0.43% of 340,000 active. AID 504454;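 active = response above a set limit, near 3 SD of response in nonfluorescent compounds, cut at about 42% in these data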;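 note: stock transfer was 100 nL into about 11 µL; a reference agonist was the positive control; negative values mostly stem from fluorescent compounds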
ALR H2O2 inh: blocks human ALR sulfhydryl oxidase activity. P55789. purified ALR, DTT oxidation, H2O2 HRP-luminol luminescence. inhibition, % (no concentration beside the values). 3.8% of 290,000 active. AID 485317;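 active = mean and each replicate at 75% or more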;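 note: stock transfer was 7.5 nL into about 7.5 µL; 0% = neutral wells and 100% = wells with inactivated enzyme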
Target sequence (P55789 whole entry, looked up): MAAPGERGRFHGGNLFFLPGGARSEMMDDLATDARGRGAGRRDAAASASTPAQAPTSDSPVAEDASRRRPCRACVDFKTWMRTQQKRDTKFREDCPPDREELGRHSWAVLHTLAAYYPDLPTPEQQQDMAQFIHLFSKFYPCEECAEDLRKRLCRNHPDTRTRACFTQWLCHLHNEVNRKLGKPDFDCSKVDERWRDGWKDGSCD
UCH37 DUB inh: blocks the human deubiquitinase UCH37; purified proteasome/UCH37, Ub-AMC cleavage fluorescence; inhibition, % (no concentration beside the values); 0.33% of 330,000 active; AID 588478; Q9Y5K5;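 active = mean of two replicates above 20%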;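 note: 0% = compound-free wells with enzyme and 100% = wells lacking proteasome; stock transfer was 100 nL into about 20 µL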
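Assay system: Proteasome-bound UCH37. Buffer or medium: pH 7.4 Tris-HCl (50 mM) with ovalbumin, ATP-MgCl2, DTT. Incubation: 30 min preincubation with enzyme, 25 min cleavage at room temperature. Measured by: fluorescence, ex 355 nm, em 460 nm. Read-out basis: percent inhibition. Control set: wells without proteasome as full block, compound-free enzyme plus substrate as uninhibited.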
LANA-H2A inh: blocks KSHV LANA binding to histone H2A/H2B; Q9QR71; cell-free LANA-H2A/H2B peptide, fluorescence polarization; inhibition, % (concentration not given with the values); 0.6% of 320,000 active; in the data active = inhibition mostly above about 10%, no sharp cut-off; inactive = mostly below about 6.7%;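 note: stock transfer was 7.5 nL into about 10 µL; 0% = median of vehicle wells and 100% = median of positive control wells; one replicate is shown; the record names a cut of 25% in any replicate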
FGF22 binding: shifts melting point of recombinant human FGF22 | Q9HCT0 | recombinant FGF22 thermal shift, SYPRO orange fluorescence; percent of sucrose octasulfate shift, DMSO zero | calls only at 9.99 µM | 1.5% of 340,000 active | AID 651658;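 active = melting point raised past a set limit in the mean and every replicate; three in four hits are not shown here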
Target sequence (Q9HCT0 whole entry, looked up): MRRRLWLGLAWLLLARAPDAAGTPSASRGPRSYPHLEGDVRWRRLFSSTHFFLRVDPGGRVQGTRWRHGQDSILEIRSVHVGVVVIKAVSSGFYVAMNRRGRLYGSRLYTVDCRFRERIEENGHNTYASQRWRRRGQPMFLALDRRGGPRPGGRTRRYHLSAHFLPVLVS
* = called active by the depositor; i = inactive; . = not tested or not shown. Some of the compounds tested (hit frequency here may not be typical).

Molecule	E coli growth	HNF4A DNA FP	Beta2AR agonist	ALR H2O2 inh	UCH37 DUB inh	LANA-H2A inh	FGF22 binding
O=c1c2c3c(sc2nc(NCCOCCO)n1Cc1ccco1)CCCCC3	.	2.4	.	12.8	.	-3.7	i
CCOC(=O)c1cnn(-c2nc(-c3ccc(F)cc3)cs2)c1C(F)(F)F	0.675	-1.6	2.1	-15.1	-32.2	2.4	.
CC(c1nc2ccccc2c(=O)[nH]1)N1CCN(C)CC1 (centres undefined)	0.741	-0.5	-3.0	-0.5	4.3	-1.0	.
CCCC1CC(CSc2ncn[nH]2)OC1=O (centres undefined)	0.68	2.5	9.9	1.0	6.5	8.0	i
CCCCCCCCCCCC(=O)N1CC(=O)NC(=O)C1	0.692	1.8	3.1	3.9	4.2	2.3	i
COC(=O)c1cc(S(=O)(=O)N2CCN(c3ccccc3OC)CC2)cn1C	0.637	0.9	10.6	20.1	4.3	-0.8	i
NC(=O)CSc1nnc(-c2ccc(S(=O)(=O)N3CCCC3)cc2)n1Cc1ccco1	0.676	-1.2	-6.6	.	1.4	1.5	i
CC(=O)N1CCOc2ccc(S(=O)(=O)Nc3ccc(C)cn3)cc21	0.651	-8.0	2.1	-13.7	1.1	-5.0	i
Cc1cc(C)c2oc(-c3cccc(N)c3)nc2c1	0.645	-0.7	-5.6	-6.7	-102.3	-2.0	i
COc1ccc(CC(=O)Nc2cc(C)on2)cc1OC	0.736	-0.7	-0.4	-6.2	-2.1	-4.6	.
Cc1c(CC(=O)N[C@@H](C)C(=O)O)c(=O)oc2c(C)c3occ(-c4ccccc4)c3cc12	0.684	-0.6	0.7	50.1	-11.1	-1.4	.
N#Cc1c(C#N)c(O)c2ccccc2c1O	0.624	-7.0	0.6	-19.2	-38.6	3.1	i

An excerpt from above in order of the Beta2AR agonist value, high to low.
Molecule	E coli growth	HNF4A DNA FP	Beta2AR agonist	ALR H2O2 inh	UCH37 DUB inh	LANA-H2A inh	FGF22 binding
CC(=O)N1CCOc2ccc(S(=O)(=O)Nc3ccc(C)cn3)cc21	0.651	-8.0	2.1	-13.7	1.1	-5.0	i
CC(c1nc2ccccc2c(=O)[nH]1)N1CCN(C)CC1 (centres undefined)	0.741	-0.5	-3.0	-0.5	4.3	-1.0	.
NC(=O)CSc1nnc(-c2ccc(S(=O)(=O)N3CCCC3)cc2)n1Cc1ccco1	0.676	-1.2	-6.6	.	1.4	1.5	i

The list continues:
Molecule	E coli growth	HNF4A DNA FP	Beta2AR agonist	ALR H2O2 inh	UCH37 DUB inh	LANA-H2A inh	FGF22 binding
CCOC(=O)C1(NC(=O)C2(N3C(=O)c4ccccc4C3=O)CCCC2)CCCC1	0.659	0.7	-4.4	.	2.9	.	.
CC(C)n1ncc2c(C(=O)Nc3ccc(S(C)(=O)=O)cc3)cc(C3CC3)nc21	0.652	1.9	6.9	-3.5	-2.8	5.2	i
Cc1ccc2nc(NC(=O)CSCc3ccccc3)sc2c1	0.732	2.0	3.8	1.6	-0.1	-0.5	.
CN(C(=O)COc1cc(=O)n(C)c2ccccc12)c1ccc(Cl)cc1	.	4.1	-32.5	.	.	7.5	i
COc1ccc(C2/C=C\CN(C(=O)Oc3ccc(C(F)(F)F)cc3)CC(=O)N2Cc2ccc(F)cc2)cc1 (centres undefined)	.	-3.1	9.1	.	0.3	-0.8	i
CC1=C(C(=O)Nc2ccc(C)cc2)C(c2ccc(N(C)C)cc2)NC(=O)N1 (centres undefined)	0.716	5.5	-6.8	22.9	-0.4	15.5	.
CSc1ccccc1C(=O)N(CC1CCCO1)c1c(N)n(Cc2ccccc2)c(=O)[nH]c1=O (centres undefined)	0.729	0.1	-4.1	2.9	2.4	1.1	i
O=C(O)c1cccc(NC(=O)c2ccc(Cl)c(S(=O)(=O)N3CCCCCC3)c2)c1	0.672	-2.4	18.7	1.2	1.6	3.8	i
CCOC(=O)c1sc(-c2ccccc2)cc1N	0.628	-0.9	-2.5	-0.2	-22.0	-4.0	.
Cc1ccc(/C(N)=N/OC(=O)CSc2ccccc2)cc1	0.684	-1.5	-6.5	-1.8	0.5	3.3	i
COC(=O)c1c(NC(=O)c2cccnc2)sc(C(=O)N(C)C)c1C	0.633	0.0	-21.1	13.8	6.7	0.3	i
CN1C(=O)c2ccccc2Sc2ccc(C(=O)O)cc21	0.68	3.6	-6.4	-8.6	3.8	-0.5	i
COc1ccc(C(c2nnnn2CC2CCCO2)N2CCN(c3cccc(C)c3C)CC2)cc1 (centres undefined)	0.734	1.8	-14.6	.	4.4	-4.3	.
C=CCNC(=O)c1cnc(-c2ccccc2)nc1-c1ccccc1	0.702	3.4	-8.2	-3.6	2.0	2.8	i
COc1ccc(-c2cc(C(=O)NN)[nH]n2)cc1OC	0.651	-1.2	2.2	98.4*	6.5	-0.2	i
CC1(C)CC(=O)/C(=C(\O)CCCN2C(=O)c3ccccc3C2=O)C(=NCCO)C1	0.683	3.0	-0.3	25.3	2.3	2.0	i
CC1(C)CCC(=O)N(c2ccc(OC(F)(F)F)cc2)C1=O	0.704	2.4	0.4	.	1.6	-3.2	i
N#C/C(=C\c1cccc(O)c1)c1nc2ccccc2o1	0.66	2.2	13.8	14.9	3.2	-0.1	i
Cc1ccc(S(=O)(=O)Nc2ccc3c(c2)nc(C)n3C)cc1	0.711	2.0	0.3	-6.4	1.1	-4.8	i
COC(=O)c1cccc(C23CC4(C2)[C@H](CN(Cc2cccnc2)[C@@H]4c2ccccc2)C3c2ccc(C(F)(F)F)cc2)c1 (some centres undefined)	.	.	.	-0.9	1.5	2.7	.
C=C(C)Cc1c(C)c(C#N)c2nc3ccccc3n2c1NCCCN(C)C	0.656	-1.2	-16.9	2.1	-46.4	-1.2	i
COc1ccc(-n2c(SCC#N)nnc2-c2cccnc2)cc1	0.689	0.5	-1.5	-17.4	5.5	-6.6	.
CCOC(=O)c1ccc(NC(=O)CSc2nnc(C3CC3)n2CC)cc1	0.762	-0.9	-7.0	-1.3	5.6	-4.2	.
NC(=O)COc1ccc(NC(=O)c2ccccc2-c2ccccc2)cc1	0.697	-2.3	-12.5	-8.5	2.6	1.9	i
Cc1ccc(C)c(S(=O)(=O)N2CCN(C(=O)Nc3ccccc3)CC2)c1	0.719	-1.3	1.2	-18.2	-1.2	0.7	i
COC(=O)c1sc(N2C(=O)C(O)=C(C(=O)c3ccc(C)o3)C2c2ccco2)nc1C (centres undefined)	0.721	-1.0	14.7	10.0	-76.5	2.6	i
Cc1ccc(S(=O)(=O)N2CCOCC2)cc1C(=O)Nc1ccccc1N1CCOCC1	0.715	0.9	-11.3	.	6.1	1.3	i
CN1C(=O)N(C)c2ccc(Br)c3cccc1c23	0.674	1.9	-2.7	-25.3	3.9	3.0	i
O=C(OCC(=O)N1N=C(c2ccc(Cl)cc2)CC1c1ccco1)c1ccco1 (centres undefined)	0.716	6.3	-11.9	-2.7	-1.0	-4.2	i
Cc1ccc(NC(=O)C2(c3ccccc3)CCCC2)nc1	0.719	-0.1	-5.2	-6.9	3.0	0.4	.
CN(C)c1ccc(/C=N/N=C2/NC(=O)/C(=C/c3ccc([N+](=O)[O-])cc3)S2)cc1	.	5.0	-74.3	-4.8	.	4.1	.
O=C(NCCC(=O)N(Cc1ccco1)Cc1cccs1)c1ccc([N+](=O)[O-])cc1	0.589	2.5	4.6	.	1.9	.	i
O=c1cc(CSc2nnc(-c3ccccc3)o2)c2ccccc2[nH]1	0.747	0.4	-9.0	3.3	1.0	0.3	i
O=C(COC(=O)c1ccc(O)cc1O)NC(=O)c1ccccc1	0.677	-0.1	0.7	.	1.3	.	i
CCn1c2ccccc2c2cc(NC(=O)c3ccc([N+](=O)[O-])cc3)ccc21	0.713	0.0	-0.1	-7.4	3.3	3.2	.
COc1ccc(NC(=O)CSc2nnc(-c3cccnc3)o2)c(OC)c1	0.647	4.5	-0.1	98.5*	1.3	1.8	i
CC(C)N1CCN(C(=O)c2cccc(Cl)c2)CC1	.	-1.7	-5.1	0.0	.	1.4	i
Cc1onc(-c2ccccc2Cl)c1C(=O)N/N=C(\N)COc1ccc(Cl)cc1	.	-1.2	-4.9	-8.3	.	1.7	.
CC1=C(C(=O)OCc2ccccc2)C(c2ccccc2Cl)NC(=O)N1CCCC(=O)O (centres undefined)	0.703	-0.2	-4.5	.	40.5*	-1.9	i
COc1ccc(NC(=O)CCNS(=O)(=O)c2ccc3c(c2)c(=O)n(C)c(=O)n3C)cc1	0.71	1.6	-4.5	-1.9	4.2	1.3	.
Cc1ccc(C(=O)NNC(=O)c2ccc3ccccc3c2)cc1	0.663	0.3	-0.9	.	-1.5	.	i
CCCOc1ccc(C(=O)NNC(=S)NC(=O)c2ccccc2[N+](=O)[O-])cc1	0.544	-1.7	5.0	20.6	2.1	-1.8	i
CC(C)CN1C(=O)C(=O)N(CC(=O)N(C)CC(=O)Nc2ccc(F)cc2)C1=O	0.642	-1.7	1.7	-3.7	0.8	0.5	i
C[C@@H]1[C@H]2CCCC[C@H]2CN(C(=O)OC(C)(C)C)[C@@H]1CC(=O)c1ccccc1	0.699	4.0	-3.0	.	1.3	.	i
O=C(Cc1c[nH]c2ccccc12)Nc1ccccc1N1CCOCC1	0.736	4.0	7.8	8.7	1.6	0.2	i
COc1cc(CNCc2ccc(C(=O)O)cc2)ccc1OCc1ccc(F)cc1	0.671	2.2	0.8	-1.7	2.7	-2.8	i
COCCn1c(SCC(=O)Nc2ccccc2C)nc2c(oc3ccccc32)c1=O	0.698	10.9	14.8	-8.3	2.2	-0.8	.
COc1cccc(N2CC(C(=O)Nc3ccc(C(=O)OC(C)C)cc3)CC2=O)c1 (centres undefined)	0.649	-2.1	0.5	5.8	4.9	7.4	.
CCOC(=O)Nc1cc(C(=O)OC)cc(C(=O)OC)c1	0.727	2.9	6.6	-6.6	2.1	10.9	.
O=C(O)c1ccc(NC(=O)c2cn(-c3ccccc3)nc2-c2ccc(Cl)cc2)cc1	0.682	-0.1	2.3	43.7	-1.3	-0.4	i
CCNCCC(CCC(C)C)c1ccc2c(c1)OCO2 (centres undefined)	0.665	5.0	-8.3	-8.1	4.3	-9.5	i
CSCCC(NS(=O)(=O)c1cccc(C(F)(F)F)c1)C(=O)N(C)CCOc1ccc(Cl)cc1 (centres undefined)	0.677	1.1	-4.8	2.5	3.6	0.9	i
CCOc1cc(NC(=O)c2ccccn2)c(OCC)cc1NC(=O)c1ccc(C)cc1	0.743	4.3	-5.0	-26.8	-20.5	-1.0	i
Cc1cccc(CSc2nnc(-c3cccs3)n2Cc2ccco2)c1	0.702	-2.1	0.4	-5.0	3.6	-4.1	.
Cc1ccc(C(=O)NCCN2CCOCC2)c(Cl)c1	.	1.7	10.1	-0.3	.	-0.5	i
CCNC(=S)N/N=C/c1cccs1	.	-0.5	-7.5	12.7	.	-3.9	.
